gsp agonist: agonists of gsp mutant (McCune-Albright syndrome); gsp mutant cells, cAMP HTRF, 30 min; control for the full effect not named in the record; Potency, µM (highest dose often 76.9 µM), without a hit: top-dose activation (cAMP increase), most hits filed as activators; 0.13% of 340,000 active; active = well fitted activation curve with a large enough effect; inconclusive = small, poorly fitted or top-dose-only effect, or another doubt; inactive = no such curve, though single readings can be large or run the other way; cell line not stated here;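 also: phosphodiesterase inhibitor Ro 20-1724 added with compounds to block cAMP breakdown; potency is read from the fitted curve at half-maximal effect; nearly all actives have a fitted effect of over 60% in size; about a fifth of the inactives were tested at one dose only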
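Cells in DMEM/10% FBS with G418 were pretreated with compounds in DMSO plus […] (300 uM stock) for 30 min at 37C. cAMP was measured by HTRF (cAMP-d2 plus anti-cAMP antibody-K) after 30 min at room temperature.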
PINK1 expr mod: changes PINK1 expression; PINK1 immunofluorescence, high-content cytometry, 24 h; Potency, µM (doses to about 76.6 µM), inactives show at the highest dose activation (PINK1 increase), actives largely listed as activators; 0.2% of 410,000 active; AID 624263; active = well fitted activation curve with a large enough effect; inconclusive = small, poorly fitted or top-dose-only effect; inactive = flat fitted curve, though single readings scatter; cell line not stated here;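 also: potency is read from the fitted curve at half-maximal effect; % of control where 0% means no effect; nearly all actives have a fitted effect of over 65% in size; a mitochondrial uncoupler was the plate control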
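Stable cell line, 250 cells/well, 12 h attachment; compounds pinned at 5 concentrations, 24 h; CCCP control. Fixed with nuclear dye, primary antibodies 12 h at 10 degrees C, secondary plus cell stain; laser-scanning cytometer read.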
gsp antag: gsp mutant antagonism; 0.4% of 340,000 active; gsp-mutant cells, cAMP HTRF, 30 min; control for the full effect not named in the record; AID 624288; Potency, µM (series often up to 76.9 µM), for the others: at the highest dose activity change, negative = inhibition, usual class: inhibitors; active = falling curve of any shape with a large fitted effect; inconclusive = falling curve, mostly with a smaller effect; inactive = flat or rising curve; cell line not stated here;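 also: intracellular cAMP measured with PDE inhibitor Ro 20-1724 present during compound exposure; potency is read from the fitted curve at half-maximal effect; % is scaled to controls: 0 for no effect and ±100 for the full control effect; nearly all actives have a fitted effect of over 65% in size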
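HTRF cAMP read-out (cAMP-d2 plus anti-cAMP antibody-K in lysis buffer, 30 min RT). Before lysis, cells are exposed to compounds with […] for 30 min at 37C in DPBS containing Ca/Mg, BSA and Tween 20.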
D2 ag: activates the human D2 dopamine receptor; P14416; DiscoveRx PathHunter D2 beta-arrestin, luminescence, 90 min; 100% = 57 uM dopamine signal; activation, % (concentration not given with the values); 0.084% of 360,000 active; in the data active = activation above about 40%; inconclusive = about 15% to 40%; inactive = below about 15%; also: compound concentration not given in the record; the text of the record calls up to 30% inactive
Target sequence (P14416 whole entry, looked up): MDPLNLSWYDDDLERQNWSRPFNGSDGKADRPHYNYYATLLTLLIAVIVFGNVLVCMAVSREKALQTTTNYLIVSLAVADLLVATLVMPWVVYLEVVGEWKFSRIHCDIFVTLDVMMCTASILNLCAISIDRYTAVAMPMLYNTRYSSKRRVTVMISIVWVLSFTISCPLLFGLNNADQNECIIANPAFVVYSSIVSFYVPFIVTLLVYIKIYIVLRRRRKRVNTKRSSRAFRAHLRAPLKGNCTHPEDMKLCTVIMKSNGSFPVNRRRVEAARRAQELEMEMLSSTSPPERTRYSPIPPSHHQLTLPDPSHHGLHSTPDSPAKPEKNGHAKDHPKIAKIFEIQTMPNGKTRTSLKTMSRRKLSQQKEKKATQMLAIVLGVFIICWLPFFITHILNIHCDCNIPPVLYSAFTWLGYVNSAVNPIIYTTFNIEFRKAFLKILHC
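DiscoveRx PathHunter D2 beta-arrestin cells (2,100/well) attached overnight, then compound-stimulated 90 min at 37 C in HBSS/10 mM HEPES/0.1% Tween-20 buffer; beta-galactosidase complementation read by luminescence after 1 h at ambient temperature. Dopamine 57 uM final (EC100) as control.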
Menin MLL FP FL: displaces fluorescein MLL peptide from human menin; Fluorescence polarization, fluorescein-MLL peptide displacement from menin; 290,000 tested, under 10 active; FP activity change, % at 61.4 µM; inconclusive = falling polarisation curve, or a change in total fluorescence; inactive = total fluorescence flat and polarisation flat or rising; no compound was filed as active; the % refers to the polarisation; negative = inhibition;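 also: % of control where 0% means no effect; inhibitors lower the polarisation; unlabelled MLL peptide was the positive control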
Sfp PPTase inh: inhibitors of Bacillus subtilis Sfp phosphopantetheinyl transferase; Biochemical Sfp PPTase activity, qHTS; Potency, µM, inactives show max response, negative = inhibition, hits mostly inhibitors; Q9F4F7; AID 1490; 3.5% of 310,000 active; active = well fitted inhibition curve with a large enough effect; inconclusive = small, poorly fitted or top-dose-only effect, or another doubt; inactive = no such curve, though single readings can be large or run the other way;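 also: the enzyme is Sfp with the accession as filed and its product quenches rhodamine fluorescence; potency is read from the fitted curve at half-maximal effect; 0% = enzyme reaction without inhibitor and -100% = no enzyme wells; top concentration of the series not given in the record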
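With Hepes-Na pH 7.6 buffer containing 10 mM MgCl2, Sfp (15 nM) modified BHQ-2-YbbR (12.5 uM) using rhodamine-CoA (5 uM). Two reads 30 minutes apart at 525/598 nm yielded each well's rate.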
ClpP mod: qHTS Assay for Activators of ClpP. ATP-dependent Clp protease proteolytic subunit (Bacillus subtilis (strain 168)), P80244. purified B. subtilis ClpP, FRET peptide cleavage, 20 min. Potency, µM (highest dose often 57.5 µM), for inactives: top-dose activity change, negative = active. 1.9% of 340,000 active. AID 651965, 2013; active = well fitted falling curve with a large enough effect; inconclusive = small, poorly fitted or top-dose-only effect; inactive = no such curve, though single readings can be large or run the other way; also: potency is read from the fitted curve at half-maximal effect; the source files actives as falling curves though it sought activators and does not explain the sign; nearly all actives have a fitted effect of over 65% in size; many hits overshoot -100%
Target sequence (P80244 whole entry, looked up): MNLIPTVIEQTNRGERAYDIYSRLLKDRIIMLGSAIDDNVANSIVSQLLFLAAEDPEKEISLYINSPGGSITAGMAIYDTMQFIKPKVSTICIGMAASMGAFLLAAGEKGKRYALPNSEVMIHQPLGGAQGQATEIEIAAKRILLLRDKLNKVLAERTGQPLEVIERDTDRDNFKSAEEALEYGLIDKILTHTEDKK
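ClpP 10 microg/mL final, pH 8 Tris/KCl buffer with BSA, glycerol, Tween-20; compound pinned in; FRET-FV substrate; RT 20 min; Ex320/Em430; ΔFRET vs ADEP 5.8 microM, DMSO, no enzyme.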
Active calls of the source: *; ? = inconclusive; nt = not tested or not shown; [ ] = another dose, or the depositor's remark. Compounds were not picked by outcome. Share with any hit: about 5.1%.

Second line of a record: gsp agonist	PINK1 expr mod	gsp antag	D2 ag	Menin MLL FP FL	Sfp PPTase inh	ClpP mod
- Cc1ccc(/C=C(\C#N)c2nn(-c3ccccc3)c(N)c2C#N)cc1
  8.2%	4.0%	?	-5.7	4.8	5.0%	-12.3%
- Cc1cccc(CCNC(=O)CCCOc2cc(=O)n(C)c3ccccc23)c1
  -5.6%[15.4 µM]	1.9%	-19.0%	-0.4	2.4	13.7%	nt
- CC(=O)Nc1ccc(Nc2nccc(C)n2)cc1
  nt	0.2%	nt	-4.4	nt	nt	-3.3%
- Fc1cc(F)c(C2SCCN2C(=S)Nc2cccc(C(F)(F)F)c2)c(F)c1 (centres undefined)
  8.7%[15.4 µM]	?	3.3%	-2.2	0.8	15.1%	nt
- O=C(NCc1cccnc1)c1cccc(OC2CCN(Cc3ccc(CO)o3)CC2)c1
  -12.2%	0.5%	8.0%	-2.0	nt	-3.4%	-3.7%
- COCCNC(=O)C(=O)NCC1CCCN1S(=O)(=O)c1cccs1 (centres undefined)
  -87.9%[inhibitor]	3.3%	nt	-0.1	nt	nt	2.5%
- COc1ccc(Cl)cc1C=CC=NNS(=O)(=O)c1ccc(C)cc1
  27.5%	0.7%	-13.5%	6.9	nt	nt	-3.3%
- Cc1cccc(/C(N)=N/OC(=O)c2ccc3c(c2)OCO3)c1
  2.0%	-0.8%	5.8%	?	-1.4	21.6%	-3.1%
- COc1cc(CNCCC2CCOC(C)(C)C2)ccc1O (centres undefined)
  2.8%	0.9%	-1.1%	-0.8	-2.4	?	-2.5%
- O=C(CN1C(=O)NC(Cc2c[nH]c3ccccc23)C1=O)NC1CC1 (centres undefined)
  ?	1.3%	10.9%	5.3	0.0	3.5%	-0.9%
- CCCNC(=O)C1CCN(S(=O)(=O)c2c(C)noc2/C=C\c2ccc(OC)cc2)CC1
  -0.3%	3.6%	-12.4%	-1.3	-2.4	-0.4%	27.3%
- CCOCCCNC(=O)CN1CCN(S(=O)(=O)c2ccc3c(c2)CCC3)CC1
  5.7%	0.3%	4.9%	-1.6	nt	nt	0.7%
- CC(=O)N1c2ccc(S(=O)(=O)NCCC(=O)NC3CCC(C)CC3)cc2CC1C (centres undefined)
  ?	-1.9%	7.2%	0.6	2.2	0.8%	0.1%
- COc1ccc2nc(NC(=O)CC3Oc4ccccc4NC3=O)sc2c1 (centres undefined)
  3.6%[15.4 µM]	7.3%	-0.9%	0.8	2.9	2.1%	nt
- CCN(CC(=O)Nc1ccccc1C(F)(F)F)C(=O)c1cccc(N2C(=O)CCC2=O)c1
  1.2%	-2.1%	16.2%	2.8	nt	nt	0.7%
- O=S(=O)(N/N=C\c1c(F)cccc1Cl)c1ccc(Cl)cc1
  -19.7%	1.0%	-4.1%	-1.3	2.3	16.6%	0.6%
- CCn1ncc(/C=N\NC(=O)COc2cc(C)cc(C)c2)c1C
  -6.2%	9.1%	-2.7%	-1.5	6.5	10.8%	-3.8%
- O=C1CCC(C(=O)Nc2ccccc2N2CCCC2)=NN1
  9.7%[15.4 µM]	-1.0%	6.5%	0.1	nt	nt	-5.9%
- c1ccc(CN2OCC3Cn4c(nc5ccccc54)C32)cc1 (centres undefined)
  nt	-0.7%	12.5%	-0.3	-1.4	29.0%	-3.3%
- O=C(O)CSc1nnc(CNc2ccc(F)cc2)n1-c1ccccc1
  -19.6%	1.1%	2.6%	-1.4	3.1	4.0%	nt
- CC(=O)NC(CCS(C)(=O)=O)C(=O)Nc1nc(C)cs1 (centres undefined)
  -55.9%[inhibitor]	nt	8.7%	-2.2	1.9	-3.4%	0.0%
- COc1ccc(/C=C/C(=O)NCc2c(C)nn(C)c2C)cc1COc1ccc(Br)cc1
  -44.9%[inhibitor]	?	-7.5%	0.6	2.1	-8.1%	-5.3%
- CCN(CC)c1ncnc2c1[nH]c1ccccc12
  0.4%	2.2%	-25.5%	1.4	3.2	7.7%	-3.9%
- COc1ccc(CN2CC(C(=O)NCCc3ccc(C)cc3)CC2=O)cc1 (centres undefined)
  -78.7%[inhibitor]	-3.4%[38.3 µM]	-3.7%	-1.8	-3.8	12.1%	1.2%
- CCOc1cc(CNCc2cccs2)ccc1OCC(=O)NC(C)(C)C
  ?	-0.3%	-1.2%	1.3	1.1	1.4%	0.3%
- CCCCn1c(N)c(N(CCOC)C(=O)c2cc(S(=O)(=O)N3CCCCC3)ccc2C)c(=O)[nH]c1=O
  -0.9%[15.4 µM]	-4.9%	0.0%	-3.7	nt	nt	nt
- O=C(CSc1n[nH]c(=O)n1C1CC1)c1ccc(F)cc1
  5.6%	0.6%	-20.7%	-2.1	-0.8	22.8%	-0.8%
- O=C(Nc1ccc(N2C(=O)C3C4C=CC(C4)C3C2=O)cc1)Nc1cccnc1 (centres undefined)
  -12.3%	3.3%	7.7%	-0.1	1.4	6.0%	0.1%
- O=C(O)c1ccccc1C(=O)c1ccc(Br)s1
  31.2%[15.4 µM]	-0.3%	-0.3%	5.0	10.0	25.0%	nt
- O=C(O)c1ccccc1COc1ccccc1Cl
  -15.1%	-3.4%[38.3 µM]	-8.1%	-0.5	1.6	24.4%	1.4%
- CC1(CCc2ccccc2)NC(=S)N(c2ccc(Cl)cc2)N1 (centres undefined)
  -47.3%[inhibitor]	5.5%	5.7%	-6.5	1.4	-86.5%	-2.9%
- CC1=C(C(=O)N(C)C)CC(CC(=O)NCc2cccc3ccccc23)C(=O)N1Cc1ccccc1 (centres undefined)
  -14.9%	0.0%	nt	-8.7	nt	nt	0.0%
- O=C(COC(=O)c1ccc(F)cc1)Nc1cc(S(=O)(=O)N2CCOCC2)ccc1N1CCCC1
  1.5%[15.4 µM]	0.3%	nt	-4.6	0.9	15.8%	nt
- COc1ccc(CNC(=O)Cc2ccc(-c3ccccc3)cc2)cc1OC
  18.6%	13.4%	-15.0%	1.2	0.0	-0.2%	nt
- CCC1SC2=NC(C)=C(C(=O)OC)C(c3ccc(C(=O)OC)cc3)N2C1=O (centres undefined)
  -17.7%	1.4%	-15.5%	-4.4	1.2	12.0%	0.2%
- COc1ccc(Br)cc1/C=C/C(=O)OCC(=O)NCCc1ccc(S(N)(=O)=O)cc1
  ?	0.4%	-12.2%	-4.6	nt	nt	nt
- COc1cc(C2NC(=O)CCC2[N+](=O)[O-])cc(Br)c1OC (centres undefined)
  -19.1%	3.0%	0.0%	4.0	-0.4	13.8%	nt
- COc1ccc(CNCC(O)COc2ccc(C)cc2[N+](=O)[O-])cc1 (centres undefined)
  -0.9%	-4.3%	7.5%	-2.4	0.0	-2.6%	-2.4%
- CCOC(=O)c1c(NC(=O)c2cccs2)sc2c1CCN(C(=O)OCC)C2
  ?	5.2%	-5.1%	-0.9	20.9	?	-2.9%
- COc1ccc2c(CC(=O)NC3CCCc4ccccc43)coc2c1 (centres undefined)
  -27.4%	0.5%	-1.8%	-2.8	5.1	6.9%	-4.0%
- Cc1cccc(-n2c(-c3csc(C(C)C)c3)n[nH]c2=S)c1
  17.2%	0.0%[38.3 µM]	-30.4%	-3.5	-1.4	1.3%	-11.5%
- COc1ccc(C(C(=O)NC(C)(C)C)N(Cc2ccccc2)C(=O)CCC(=O)Nc2cc(C)on2)cc1 (centres undefined)
  -23.6%	-0.4%	-1.7%	2.8	2.7	15.5%	-1.5%
- CSc1ccccc1OCc1cc(C(=O)NC(C)CCn2cccn2)no1 (centres undefined)
  20.9%	-0.3%	1.8%	-1.8	nt	2.4%	-3.8%
- Cc1cc(COc2ccccc2)oc1C(=O)O
  -42.9%[inhibitor]	-0.2%	-8.0%	-1.0	7.7	?	-2.2%
- CC(=O)n1cc([C@H]2C=C(C(=O)N3CCN(Cc4ccccc4)CC3)O[C@@H](OCCCCO)C2)c2ccccc21
  nt	-0.6%	35.5µM*	3.9	-5.1	-8.3%	-4.3%
- COc1cccc(CNS(=O)(=O)c2c(C)nc3sccn3c2=O)c1
  -18.1%	1.2%	-23.2%	0.5	1.8	25.1%	-13.4%
- COc1cccc(NC(=O)NCCCCc2ccccc2)c1
  -4.0%	-1.5%	-15.2%	-6.2	0.1	8.6%	1.6%
- CCCCCCN1C[C@H](n2cc(C3CC3)nn2)[C@@H](O)C[C@@H]1c1ccc(OC)cc1
  8.2%	0.2%	nt	-2.7	nt	nt	-2.5%
- COCCN1C(=O)C(=O)/C(=C(/O)c2cccc(S(=O)(=O)N(C)C)c2)C12C(=O)N(C)c1ccccc12 (centres undefined)
  -38.0%[inhibitor]	-0.9%	-2.2%	-1.6	-1.4	1.8%	-0.1%
- CCCN(CCC)CCCNC(=O)c1nn(-c2cccc(OC)c2)c(=O)c2ccccc12
  -33.8%[inhibitor]	-0.7%	9.7%	-3.2	-3.1	29.8%	-0.8%

(continued)
Second line of a record: gsp agonist	PINK1 expr mod	gsp antag	D2 ag	Menin MLL FP FL	Sfp PPTase inh	ClpP mod
- Cc1cc(C(=O)N2C(C)CCCC2C)no1 (centres undefined)
  -11.5%[15.4 µM]	0.6%	6.2%	-2.5	2.6	-0.8%	nt
- CC(C)CCNC(=O)c1ccccc1SCC(=O)NC1CCCCCCC1
  -4.0%	1.4%	-18.1%	-0.6	nt	nt	-1.5%
- N#Cc1cccc(CN2CCC(=O)N(CCO)CC2)c1
  nt	0.1%	8.5%	-3.4	4.3	6.2%	-0.3%
- CC(NCc1ccc2c(c1)OCO2)C(=O)NC1CCCCC1 (centres undefined)
  -6.1%[15.4 µM]	2.8%	3.8%	0.9	2.7	14.0%	nt
- Cc1ccc(C(=O)N/C(=C\c2ccccc2)C(=O)NCCCn2ccnc2)cc1
  -44.0%[inhibitor]	-0.3%	-5.1%	-2.1	-1.1	13.7%	nt
- COc1ccc(-c2cc3c(=O)n(CC(=O)NCCCN4CCN(Cc5ccccc5)CC4)ncn3n2)cc1
  16.4%	4.2%	0.5%	-6.5	nt	2.3%	-22.9%

Assay outcomes as filed in PubChem.
